Compound activity from PubChem.
NS1 inh = blocks influenza NS1 protein function. S. cerevisiae slowed by influenza A NS1, growth recovery by OD600. Potency, µM (top dose mostly 46.1 µM), inactives show at the top dose activity, positive = more growth. hit rate 0.4% among 270,000; active means well fitted rising curve with a large enough effect; inconclusive means small, poorly fitted or top-dose-only effect; inactive means no such curve, though single readings can be large or run the other way; further: nearly all actives have a fitted effect of over 50% in size
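OD600 was taken as the measure of yeast growth restored by compound in an NS1-expressing S. cerevisiae strain. Cells had been washed out of glucose medium and diluted 1:100 into galactose -URA medium, pH 6.0.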
LASV entry inh = Lassa virus entry inhibition. Lassa virus pseudotype entry inhibition, cell reporter; control for the full effect not named in the record. hit rate 1.2% among 300,000. AID 540256. Potency, µM (doses to about 37.9 µM), for inactives: top-dose activity change, negative = inhibition, usual class: inhibitors; active means well fitted inhibition curve with a large enough effect; inconclusive means small, poorly fitted or top-dose-only effect, or effect the other way; inactive means flat fitted curve, though single readings scatter; tested in HEK293 cells; further: on the % scale 0 is the no-effect control and ±100 the full control effect; nearly all actives have a fitted effect of over 50% in size; luciferase read-out
StopGo reporter = lowers the luciferase signal of an FMDV 2A StopGo reporter; human cells with a luciferase reporter of 2A StopGo recoding; control for the full effect not named in the record; Potency, µM (highest dose often 57.9 µM), without a hit: at the highest dose signal change, negative = less light; hit rate 1.2% among 410,000; active = well fitted falling curve with a large enough effect; inconclusive = small, poorly fitted or top-dose-only effect; inactive = no such curve, though single readings can be large or run the other way; tested in HEK293T cells; further: on the % scale 0 is the no-effect control and ±100 the full control effect; nearly all actives have a fitted effect of over 45% in size; luciferase light after 4 h
RE007 growth inh = less growth of the S. pombe RE007 Vpr strain; S. pombe RE007 Vpr strain, BacTiter-Glo ATP luminescence, 24 h; control for the full effect not named in the record; Potency, µM (series often up to 92.2 µM), without a hit: top-dose activity change, negative = less growth; hit rate 0.21% among 360,000; active = well fitted falling curve with a large enough effect; inconclusive = small, poorly fitted or top-dose-only effect; inactive = no such curve, though single readings can be large or run the other way;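 further: on the % scale 0 is the no-effect control and ±100 the full control effect; nearly all actives have a fitted effect of over 50% in size; the assay follows cell death caused by Vpr and the record does not say whether a fall means rescue or toxicity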
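Fission yeast strain RE007, carrying one chromosomally integrated HIV-1 vpr copy, was seeded at OD 0.01 in PMG+AL medium with 23 nL pinned compound. After 24 h at 30 °C and 99% humidity, viability was read by BacTiter-Glo luminescence.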
MARV entry inh = Marburg virus entry inhibition. Potency, µM (series often up to 37.8 µM), for the others: top-dose activity change, negative = inhibition, most hits filed as inhibitors. Marburg virus pseudotyped entry inhibition, cell reporter; control for the full effect not named in the record; about a third of the inactives were read at about 46 µM. hit rate 1.8% among 300,000; active = well fitted inhibition curve with a large enough effect; inconclusive = small, poorly fitted or top-dose-only effect, or effect the other way; inactive = flat fitted curve, though single readings scatter; tested in HEK293 cells; about a fifth of its hits are not listed in these tables; further: on the % scale 0 is the no-effect control and ±100 the full control effect; luciferase read-out
Cruzain inh Det = inhibitors of Trypanosoma cruzi cruzain with detergent; P25779; purified cruzain, Z-FR-AMC fluorescence, 0.01% Triton; Potency, µM, for the others: max response, negative = inhibition, hits mostly inhibitors; hit rate 0.43% among 200,000;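 further: plate controls were neutral wells for no effect and buffer without enzyme for full effect; nearly all actives have a fitted effect of over 40% in size; top concentration of the series not given in the record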
Target sequence (P25779 123-467 limits assumed): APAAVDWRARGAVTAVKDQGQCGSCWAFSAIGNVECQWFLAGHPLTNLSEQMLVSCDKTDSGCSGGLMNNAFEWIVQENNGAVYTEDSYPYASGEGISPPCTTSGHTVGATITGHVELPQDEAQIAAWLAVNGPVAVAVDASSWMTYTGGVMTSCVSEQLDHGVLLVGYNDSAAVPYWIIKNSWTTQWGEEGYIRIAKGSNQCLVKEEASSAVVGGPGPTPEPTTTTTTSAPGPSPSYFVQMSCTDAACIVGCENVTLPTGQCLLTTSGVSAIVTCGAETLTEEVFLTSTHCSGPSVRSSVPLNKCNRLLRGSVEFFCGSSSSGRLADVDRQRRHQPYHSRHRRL
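Cruzain (1.5 nM) preincubated 15 min at RT with compound in 100 mM sodium acetate pH 5.5, 5 mM DTT, 0.01% Triton X-100. Reaction started with 2 uM Z-FR-AMC; AMC fluorescence (ex 360/em 450 nm) change over 60 s gave rate.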
SARS PLP yeast = blocks SARS-CoV papain-like protease in a yeast assay; hit rate 0.19% among 330,000; S. cerevisiae expressing SARS-CoV PLpro, growth rescue; control for the full effect not named in the record; Potency, µM (series often up to 32.9 µM), for inactives: top-dose activity, positive = growth rescue; AID 485353; active means well fitted rising curve with a large enough effect; inconclusive means small, poorly fitted or top-dose-only effect; inactive means no such curve, though single readings can be large or run the other way; further: 0% is about no effect; nearly all actives have a fitted effect of over 55% in size; growth read by luminescence after 48 h
Cruzain inh noDet = inhibitors of Trypanosoma cruzi cruzain without detergent. AID 1476. P25779. hit rate 2.3% among 200,000. purified cruzain, Z-FR-AMC fluorescence, no detergent. Potency, µM, for inactives: max response, negative = inhibition, hits mostly inhibitors;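 further: plate controls were enzyme without inhibitor for no effect and buffer without enzyme for full effect; nearly all actives have a fitted effect of over 40% in size; top concentration of the series not given in the record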
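Purified cruzain at 1.5 nM, pre-incubated 15 min with compound at room temperature in 100 mM sodium acetate pH 5.5, 5 mM DTT, 0.00005% Triton X-100. Reaction started with 2 uM Z-FR-AMC; AMC fluorescence increase over 60 s gives rate.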
Active calls of the source: *; ? = inconclusive; nt = not tested or not shown; & = joins results of further samples; [ ] = remark or other dose. Unless noted, the call rests on the fitted dose curve; in most records, active means well fitted curve in the direction sought with a large enough effect; inconclusive means small, poorly fitted or top-dose-only effect, or another doubt; inactive means no such curve, though single readings can be large; an effect the other way counts as inactive or inconclusive. Potency means the concentration at half of the fitted maximal effect. Compounds were not picked by outcome, and some 4.7% of all compounds hit somewhere here.

molecule	NS1 inh	LASV entry inh	StopGo reporter	RE007 growth inh	MARV entry inh	Cruzain inh Det	SARS PLP yeast	Cruzain inh noDet
Cn1c(=O)oc2cc(S(=O)(=O)N3CCCC(C(=O)NCc4ccc(F)cc4)C3)ccc21 (stereo unspecified)	nt	3%[46.1 µM]	-9%	nt	-3%[46.1 µM]	3.8%	nt	?
OCCC1CN(CC#Cc2ccccc2)CCN1Cc1ccccc1F (stereo unspecified)	0%	?	-6%	0%	-7%[46.1 µM]	nt	5%	nt
Cc1ccc(/C=C2/SC(=S)N(c3ccc(S(=O)(=O)Nc4nccs4)cc3)C2=O)cc1	7%	-7%	9%	8%	0%[14.2 µM]	nt	0%	nt
CCc1ccc2[nH]c(=O)c(CN(Cc3ccccc3OC)C(=O)Nc3ccccc3OC)cc2c1	10%	?	-28%	7%	?	-2.3%	-3%	-26%
CC(C)N(Cc1ccccc1)S(=O)(=O)c1ccc2c(c1)NC(=O)CO2	-2%	?	-15%	14%	-9%[46.1 µM]	nt	3%	nt
O=CC(Cl)P(=O)(N1CCCCC1)N1CCCCC1 (stereo unspecified)	-8%	-16%	?	-5%	-3%	0.3%	2%	7%
Cc1cc(C)c(NC(=O)Cn2c(=O)n(Cc3ccco3)c(=O)c3ccc(C(=O)NC4CCCC4)cc32)c(C)c1	nt	-7%[46.1 µM]	0%	nt	10%[46.1 µM]	5.9%	nt	?
Cc1nc(N)nc(N)c1Oc1ccc(Cl)cc1	nt	19%[46.1 µM]	-28%	63%	-11%[46.1 µM]	nt	nt	nt
Cc1ccc(S(=O)(=O)Nc2ccc(C(=O)N3CCN(c4ccccc4O)CC3)cc2)cc1[N+](=O)[O-]	nt	?	-27%	5%	17%	nt	-28%	nt
O=C(NNS(=O)(=O)c1ccccc1)c1cc2cc3ccccc3nc2s1	25%	23%	56%[activator]	1%	17%	-7.4%	5%	-7%
CC(C)Sc1nnc(NC(=O)c2ccc3c(c2)OCO3)s1	5%	?	67%[activator]	0%	0%	nt	-7%	nt
Cc1ccc(C)n1-n1cnc2sc(-c3ccccc3)cc2c1=O	-33%	-28%	?	-19%	-2%	-6.5%	-19%	-17%
CC(C)CN(C(=O)CSc1ncnc2ccccc12)C1CCS(=O)(=O)C1 (stereo unspecified)	nt	-10%	?	-5%	?	nt	-3%	nt
CC(=O)Cc1cc(O)c2ccccc2c1OC(=O)c1ccc(Br)cc1	3%	nt	-29%	-2%	nt	nt	-1%	nt
COc1ccccc1N1CCN(C(=O)C2CC(=O)N(c3ccccc3)C2)CC1 (stereo unspecified)	8%	0%	-17%	1%	4%[46.1 µM]	nt	14%	nt
O=C(CCc1c[nH]c2ccccc12)N[C@@H](Cc1c[nH]c2ccc(O)cc12)C(=O)O	5%	-1%[46.1 µM]	0%	-8%	11%[46.1 µM]	nt	1%	nt
O=C(O)CCC(=O)c1ccc2sc3ccccc3c2c1	-30%	-20%[46.1 µM]	15%	14%	10%	2.2%	nt	-6%
CC(C)CN(C(=O)COC(=O)Cc1c[nH]c2ccccc12)C1CCS(=O)(=O)C1 (stereo unspecified)	6%	5%	4%	-9%	-5%	2.7%	4%	7%
CCOCCCNC(=O)CN1C2CCC1CC(O)(c1ccc(OC)cc1)C2 (stereo unspecified)	-10%	17%	nt	-14%	9%	11%	-9%	2%
COc1cc(NC(=O)COC(=O)CSc2cc(C)ccc2C)c(C)cc1[N+](=O)[O-]	-8%	2%	-21%	-18%	-8%	-14%	-24%	12%
CCCNc1nc(Nc2ccc(C)cc2)nc(N2CCCC2)n1	-123%	-30%	-28%	-17%	15µM*	-11%	-33%	-5%
CCc1cc2c(-c3ccccc3)cc(=O)oc2c2c1OCN(Cc1ccc(C)cc1)C2	nt	18%[46.1 µM]	0%	nt	-15%[46.1 µM]	-2.1%	nt	?
COC(=O)c1c(NC(=O)C2COc3ccccc3O2)sc2c1CCN(Cc1ccccc1)C2 (stereo unspecified)	-2%	-7%	-16%	-17%	?	-4.5%	-35%	-4%
CC1CC(C)CN(CCCOc2ccccc2[N+](=O)[O-])C1 (stereo unspecified)	-13%	?	-17%	7%	?	-3.6%	3%	-23%
CN(CCNC(=O)C1CCN(S(=O)(=O)N2CCOCC2)CC1)CCc1ccccc1	?	-3%	-2%	7%	3%	2.8%	-3%	8%
Cc1cc(C)c2c(n1)SCC(=O)N2CC(=O)Nc1ccc(F)cc1	-3%	nt	-13%	4%	nt	nt	8%	nt
O=C(CCCOc1ccc(Cl)cc1)NCC1CCCO1 (stereo unspecified)	3%	8%	?	11%	3%[46.1 µM]	2.5%	-1%	5%
COc1ccc2c(c1)C(=O)N(c1ccc(C)cc1C)C(=O)C2	?	14%	-12%	-3%	-1%	-5.9%	-23%	-2%
Cc1ccc([N+](=O)[O-])c(OCc2ncc(Cl)n2C)c1	7%	?	27%	-3%	?	nt	4%	nt
C=Cn1c(C(=O)O)ccc1-c1ccc(CC)cc1	-127%	nt	5%	?	nt	nt	-8%	nt
Cc1cc(-n2c(C)cc(C(=O)COC(=O)CN=C3NS(=O)(=O)c4ccccc43)c2C)no1	-19%	?	30%[activator]	2%	1%	-0.5%	1%	-9%
CCC(C)C(=O)NCCc1ccc(S(N)(=O)=O)cc1 (stereo unspecified)	-9%	25%	-4%	-4%	?	-2.3%	-12%	-2%
Cc1c(NC(=O)C(C)OC(=O)/C=C/c2ccco2)c(=O)n(-c2ccccc2)n1C (stereo unspecified)	nt	9%	2%	6%	3%	nt	-2%	nt
CS(=O)(=O)N(CC(=O)N1CCN(c2ccccc2)CC1)c1cccc(Br)c1	-11%	-9%	-29%	-17%	29%&29%	3.0%	-1%	23%
CCOC(=O)c1ccc(NC(=O)C(=O)NCc2ccc(/C=C(/C#N)C(=O)NCCOC)o2)cc1	nt	-12%	-28%	-5%	2%[46.1 µM]	nt	2%	nt
CCCc1nnc(SCC(=O)NC2CC2)n1CC	-4%	?	0%	9%	4%[46.1 µM]	nt	1%	nt
O=S(=O)(c1ccccc1Cl)N1CCCC(c2nc(-c3cccnc3)no2)C1 (stereo unspecified)	-5%	-38%[14.3 µM]	?	5%	-1%	-12%	2%	-5%
COc1ccc(Cl)cc1NC(=O)CN1CCC(n2nnc3cc(F)ccc32)CC1	-4%	16%	-22%	-1%	-5%	-2.3%	-18%	?
COc1ccccc1-n1c(-c2ccoc2)nc2ccccc2c1=O	-11%	6%	0%	4%	-5%[46.1 µM]	0.2%	2%	?
Cc1ccc(N2C(=O)C3C(C2=O)C2C=CC3C23CC3)c([N+](=O)[O-])c1 (stereo unspecified)	nt	2%	0%	-9%	1%[46.1 µM]	nt	-1%	nt
Fc1cccc(F)c1CN1CCN(c2ncccn2)CC1	6%	10%	0%	1%	-3%	1.0%	2%	-12%
COC(=O)c1ccc(NC(=O)c2ccc(NS(=O)(=O)c3cccc4cccnc34)cc2)cc1	0%	-2%[46.1 µM]	-1%	4%	?	nt	-3%	nt
CC(O)c1nc2cc([N+](=O)[O-])ccc2n1Cc1ccccc1 (stereo unspecified)	15%	nt	-14%	15%	nt	nt	1%	nt
O=C(O)c1ccccc1C(=O)N1N=C2/C(=C/c3cccc([N+](=O)[O-])c3)CCCC2C1c1cccc([N+](=O)[O-])c1 (stereo unspecified)	nt	4%	25%	6%	?	nt	1%	nt
COc1cccc(CN(CC2CCCO2)C(=O)c2cc3ccccc3oc2=O)c1 (stereo unspecified)	-2%	nt	92%[activator]	?	nt	nt	0%	nt
Cc1cccc(OCc2nnc(SC(C)C(=O)O)n2-c2ccccc2)c1 (stereo unspecified)	27%	nt	0%	1%	nt	nt	0%	nt
Cc1ccc(/C=C\c2nccc3c2[nH]c2ccccc23)cc1	-44%	-11%[46.1 µM]	17%	0%	?	nt	-5%	nt
COc1ccc(C(=O)NC2CCN(C(=S)Nc3ccc(C)cc3)CC2)cc1	7%	6%[46.1 µM]	-9%	5%	0%[46.1 µM]	nt	1%	nt
COc1cccc(C(=O)NN2CC(O)=C(c3nc4ccccc4s3)C2=N)c1	7%	-19%[46.1 µM]	6%	-16%	?	nt	1%	nt
O=C(c1sc2ccccc2c1Cl)N1CCN(CCc2ccccn2)CC1	-18%	nt	-27%	-3%	nt	nt	-5%	nt
CSCCC1(C(=O)O)NC(c2ccccc2O)C2C(=O)N(C(C)C)C(=O)C21 (stereo unspecified)	2%	nt	-11%	-5%	nt	5.6%	10%	-2%
O=C(NC1CC(=O)N(c2cccc(F)c2)C1)c1ccc(S(=O)(=O)N2CCOCC2)cc1 (stereo unspecified)	nt	12%[46.1 µM]	-15%	nt	nt	-0.3%	nt	-6%
COc1ccccc1C(=O)Nc1ccc2c(c1)CN(Cc1cnc(C)s1)CC2	-6%	10%	?	-6%	?	nt	-2%	nt
CCCCCCc1cc2cc(C(=O)Nc3ccc(OC)cc3)c(=O)oc2cc1O	3%	-1%	?	-4%	?	0.7%	25%	-3%
CC(NC(=O)C(CC(=O)OC(C)(C)C)NC(=O)OC(C)(C)C)C(N)=O (stereo unspecified)	-7%	24%	-10%	-4%	?	6.8%	4%	13%
COC(=O)C1CCN(C(=O)CSc2nc3ccc(OC)cc3[nH]2)CC1	nt	nt	29%	0%	1%[46.1 µM]	nt	1%	nt
CCOC(=O)c1cc2nc(-c3ccco3)cc(C(F)(F)F)n2n1	2%	7%	-5%	-9%	24%	-4.8%	9%	2%
Cn1c(SCC(=O)Nc2ccccc2)nc2ccccc2c1=O	-39%	?	-27%	79%	4µM*	nt	0%	nt
COc1ccc(C2C(C(=O)c3ccco3)=C(O)C(=O)N2CCOCCO)cc1OC (stereo unspecified)	?	-1%	23%	2%	2%	0.6%	6%	-1%
CC1(C)CC(=O)C(C2=NC3(CCCCC3)Cc3ccccc32)=C(O)C1	6%	28%[46.1 µM]	26%	2%	-24%[46.1 µM]	nt	0%	nt
